From PubChem
CDC25B CDK2 inh = primary biochemical HTRF screen for blockers of M-phase inducer phosphatase 2 binding to CDK2/cyclin A | HTRF CDC25B-CDK2/CyclinA binding, anti-His/anti-Flag; active compounds read high | z-score (test concentration not listed) | hit rate 0.72% among 94,000 | AID 1259370, 2018;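 further: score is relative to mean and SD of negative controls; strong numbers were not always called active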
HIV TAR-Tat = TAR RNA-Tat peptide displacers, HIV-1, primary screen, biochemical, FRET, FAM/TAMRA-labeled Tat | AID 1259389, 2018 | hit rate 0.6% among 100,000 | HIV-1 TAR RNA, Tat peptide displacement FRET; active compounds read high | z-score (test concentration not listed);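 further: score is relative to mean and SD of negative controls; some compounds called inactive have numbers as strong as hits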
An asterisk follows results filed as active; . = no result given.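 How the source made its calls: active means z-score from 3 up in half or more of its runs; inactive means the rest.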

Each structure is followed by: CDC25B CDK2 inh	HIV TAR-Tat
1) Cn1cccc1-c1cc2n(n1)CCCN2C(=O)CCC(=O)NCc1ccc2c(c1)OCO2
 : .	-2.2
2) CCCNC(=O)Cn1ncc2c3ccccc3n(C)c2c1=O
 : 0	-1
3) Cc1nc2ccn(Cc3cccs3)c(=O)c2cc1C(=O)N1CCN(c2ncccn2)CC1
 : .	-0.36
4) CCN1C(=O)/C(=C2/Oc3ccc4ccccc4c3N2C)OC1=S
 : -2.8	.
5) O=C(NC1CCCc2ccccc21)c1cnc2sc3c(n2c1=O)CCCC3 (configuration not stated)
 : .	1.2
6) O=C(c1cc2cc3ccc(Cl)cc3nc2o1)N1CCc2ccccc21
 : .	0.93
7) CNC(=O)c1c(NC(=O)c2ccc3c(c2)OCCO3)sc(C)c1C
 : .	1.8
8) COC(=O)c1c(-c2cccs2)csc1NC(=O)c1ccc(Br)cc1
 : 2.1	-0.95
9) O=C(c1cccs1)N1CCCN(Cc2cccc3ccccc23)CC1
 : -0.98	.
10) CNC(=O)c1c(NC(=O)c2ccc(C)cc2C)sc2c1CCC2
 : .	-0.88
11) Cc1ccc(-c2nc(NC(=O)Cc3csc(C)n3)sc2C)cc1
 : -1.7	1.8
12) c1ccc(CN2CCN(CCCNc3nn4nnnc4c4ccccc34)CC2)cc1
 : .	-1.4
13) CCc1ccccc1N1CC23C=CC(O2)C(C(=O)O)C3C1=O (configuration not stated)
 : 0.54	0.7
14) CCCNC(=O)c1c(C)c(C(=O)OCC)n(C)c1C
 : -0.2	.
15) CS(=O)(=O)c1ccc(C(=O)Nc2cccc(Cl)c2)cc1
 : -1.5	.
16) CC1CCN(c2nnc(NC(=O)Nc3ccc(F)cc3)s2)CC1
 : -1	1.9
17) CC(C)C1=NNC(=O)C1(C)C
 : -0.51	.
18) O=C(Nc1nc(C(F)(F)F)c(-c2ccccc2)s1)c1cccs1
 : -1.9	.
19) COc1ccc(OCC(=O)OCCN2C(=O)c3ccccc3C2=O)cc1
 : 8.3	.
20) O=c1c2c(-c3ccc(Cl)cc3)csc2ncn1Cc1ccco1
 : -2.5	0.75
21) O=C(Cn1c2ccccc2n2nc(-c3ccco3)nc12)c1ccc(Cl)cc1
 : -2	0.96
22) O=C(Nc1ccc2nc3n(c(=O)c2c1)CCCCC3)C(=O)N1CCN(c2ccccc2)CC1
 : -0.09	1.7
23) Cc1ccc(Cn2nc(C)c(NC(=O)CCCn3nc([N+](=O)[O-])c(Br)c3C)c2C)cc1
 : -1.2	-0.54
24) CCCCN(CC)CCNC(=O)C1CC2CCCN2C12C(=O)Nc1ccccc12 (configuration not stated)
 : .	-1.7
25) CCOc1ccc(Nc2c(-c3cc(C)c(C)cc3C)c(=O)c2=O)cc1
 : .	-2.1
26) O=C(CSc1nccn(-c2ccc(Cl)cc2)c1=O)NC1CCCC1
 : .	0.85
27) CCN(CC)S(=O)(=O)c1ccc(NC2c3ccccc3C(=O)N2c2ccccn2)cc1 (configuration not stated)
 : -0.56	0.79
28) CSc1cccc(NC(=O)NCc2cc(C)n(-c3ccc(Cl)cc3)c2C)c1
 : .	-0.41
29) COc1cc(CN2CCN(Cc3ccncc3)CC2)cc(OC)c1OC
 : -1.2	.
30) Cc1ccc2c(c1)cc1c(=O)n(CC(=O)NCC3CCCO3)nc(C)n12 (configuration not stated)
 : -2.4	2.2
31) Cc1cc(C)n(OC(=O)c2c(-c3c(Cl)cccc3Cl)noc2C)c(=O)c1C#N
 : -0.57	.
32) COc1ccc(S(=O)(=O)Nc2ncn(Cc3ccc(Cl)cc3)n2)cc1
 : -2.1	1.6
33) Cc1cc(NC(=O)CSc2nc(C3CCCC3)nc3c2c(=O)n(C)c(=O)n3C)no1
 : .	1.4
34) O=C(NCCN1CCOCC1)c1nnc(-c2ccc3c(c2)OCO3)o1
 : -1.3	1.7
35) COCCOC(=O)c1c(C)oc2ccc(NS(=O)(=O)c3cc([N+](=O)[O-])ccc3Cl)cc12
 : -1.4	.
36) CC(C)CCNC(=O)NCc1c(-n2cccc2)sc2c1CCN(C)C2
 : 1.8	-7.4
37) CCOc1ccc(-c2nnc(SCc3cc(=O)n4nc(CC)sc4n3)o2)cc1
 : 0.08	1.8
38) O=C(O)c1cccc(NC(=O)c2cc3cc([N+](=O)[O-])ccc3oc2=O)c1
 : -1.6	.
39) CCc1cc(=O)n2c(nc3ccccc32)[nH]1
 : -0.7	1.5
40) O=C(O)CCN1C(=O)c2ccncc2C1=O
 : 0.8	.
41) COc1ccc(C2CC(=O)C3=C(C2)Nc2ccccc2NC3c2cc(F)ccc2F)cc1OC (configuration not stated)
 : -3.4	5
42) COc1cc(C(Nc2cccc(C)n2)c2ccc3ccc(C)nc3c2O)ccc1O (configuration not stated)
 : -1.6	.
43) O=C(c1ncoc1-c1ccco1)N1CCOCC1
 : .	-0.05
44) Cc1cc(N2CCN(C)CC2)n2nc(C(F)(F)F)c(-c3ccccc3Cl)c2n1
 : -1.7	1.5
45) COCCN1C(=O)c2ccccc2C(C(=O)NC2CC2)C1c1cccs1 (configuration not stated)
 : .	2.8
46) CC1CC(C)CN(S(=O)(=O)N2CCCC(C(=O)NC3CCCCC3C)C2)C1 (configuration not stated)
 : .	1.1
47) CCC1CN(S(=O)(=O)c2cc(-c3cc(C)no3)ccc2C)c2ccccc2S1 (configuration not stated)
 : .	0.66
48) C=CCOc1cccc(C2c3c(oc4ccccc4c3=O)C(=O)N2c2nncs2)c1 (configuration not stated)
 : -1.7	-1.4
49) O=C(NC1CCCc2ccccc21)C1CCCN(c2nnc(-n3cccc3)s2)C1 (configuration not stated)
 : -0.32	-1.2
50) O=C(Nc1cscc1S(=O)(=O)c1ccc(Cl)cc1)c1ccccc1Cl
 : -0.78	.
51) O=C(NC1CCCC1)c1cnc(N2CCCC2)nc1
 : -2.5	-0.82
52) O=C(Nc1nn[nH]n1)C1c2ccccc2Oc2ccccc21
 : -1.2	.
53) CC1CCC(NC(=O)c2csc3c2CCCCC3)CC1 (configuration not stated)
 : -1.3	2.1
54) O=C(CN1C(=O)c2ccccc2S1(=O)=O)N1CCN(c2ccccc2)CC1
 : 0.43	.
55) Cc1noc(-c2ccc(C)c(S(=O)(=O)Nc3ccc(Cl)cc3C)c2)n1
 : .	0.3
56) COc1ccc(NC(=O)C2=Cc3sc4c(c3CS2)CCC(C)C4)c(OC)c1 (configuration not stated)
 : .	-2
57) OCCN1CCN(c2ncnc3scc(-c4ccccc4)c23)CC1
 : 0.31	.
58) CCOC(=O)c1ccc2c(c1)SCc1n[nH]c(=S)n1-2
 : -1.9	.
59) COc1ccc(C2CC(=O)c3cn4nc(C)nc4nc3C2)cc1OC (configuration not stated)
 : -1.8	1.3
60) O=[N+]([O-])c1cccc(C2N=C(c3ccc(Cl)cc3)NN2)c1 (configuration not stated)
 : -1.5	.

Carrying on:
Each structure is followed by: CDC25B CDK2 inh	HIV TAR-Tat
61) Cc1n[nH]c(=O)c2c1nnn2Cc1ccccc1F
 : -2	0.01
62) Cc1ccc(-c2nc3nc(C)cc(Nc4ccc5c(c4)OCO5)n3n2)cc1
 : -0.57	-7.1
63) CCOCCc1nn2c(=O)cc(COC(=O)CSc3ccccc3)nc2s1
 : .	-0.45
64) Cc1noc(C)c1C(=O)N1CCC(C(=O)c2ccc(F)cc2F)CC1
 : -1.2	.
65) O=C(O)CCC(=O)N1c2ccccc2NC2=C(C(=O)CC(c3ccccc3)C2)C1c1cccc(F)c1 (configuration not stated)
 : -1.2	0.56
66) CCOC(=O)c1c(Cl)c(C(C)(C)C)nc(N2CCOCC2)c1C#N
 : -1.7	.
67) O=C(Cn1cnc(S(=O)(=O)N2CCCCC2)c1)Nc1cccnc1
 : .	-1.3
68) COC(=O)c1cc(Nc2nc3ccc(C)cc3n3cnnc23)cc(C(=O)OC)c1
 : -1.1	-0.63
69) CCOc1ccc2nc(NC(=O)c3cc4c(=O)n5ccccc5nc4n3C)sc2c1
 : .	1.6
70) CCN(CCCNc1c(-c2ccc(C(C)C)cc2)c(=O)c1=O)Cc1ccccc1
 : .	1.3
71) COCCCNc1oc(/C=C/c2ccc(F)cc2)nc1C#N
 : -2	-0.88
72) CCC(C(=O)Nc1ccc(F)cc1)n1sc2ccccc2c1=O (configuration not stated)
 : -1.3	0.87
73) O=C1c2ccc3ccccc3c2-c2cccc3cccc1c23
 : -0.49	.
74) C=CCSc1nc(=O)c2c(n1C)NC(=O)CC2c1cccc(O)c1 (configuration not stated)
 : -0.93	2.1
75) CC1CC(=O)Nc2cc(S(=O)(=O)Nc3ccc(C(C)C)cc3)ccc2S1 (configuration not stated)
 : .	1.3
76) O=C(Cn1nc(-c2ccc3c(c2)OCCO3)ccc1=O)Nc1ccc(F)cc1F
 : -2.9	1.7
77) CCN(CC)S(=O)(=O)c1ccc2c(c1)NCCS2
 : .	1.2
78) Cc1cccc(-n2c(C)c(C)c3c2ncn2nc(-c4ccccc4O)nc32)c1
 : -2.3	-8.2
79) CC(C)C(=O)Nc1ccc2nn(-c3ccc(F)cc3)nc2c1
 : -3.1	1.2
80) Cc1ccc(C)c(N2CCN(S(=O)(=O)c3ccc4c(c3)C(C)(C)C(=O)N4C)CC2)c1
 : .	0.41
81) CC1CCCN(C(=O)CC(C)S(=O)(=O)c2ccc3c(c2)NC(=O)C(C)S3)C1 (configuration not stated)
 : .	-1.9
82) CCN1CCN(c2nc(N)c([N+](=O)[O-])c(NCC3CCCO3)n2)CC1 (configuration not stated)
 : .	-0.04
83) COc1ccc(OC)c(C2Nc3ccc4ncccc4c3C3=C2C(=O)CCC3)c1 (configuration not stated)
 : -0.86	-0.99
84) O=C1OC(c2ccccc2)C(Cl)=C1Cl (configuration not stated)
 : -2.6	.
85) O=S(=O)(NC(c1ccccc1)c1nnc(-c2ccccc2)o1)c1ccc(F)cc1 (configuration not stated)
 : .	1.5
86) Cc1ccc(S(=O)(=O)c2c[nH]c3ccccc3c2=O)cc1
 : -0.64	0.55
87) CCc1nn(CC(=O)N2CCN(CC)CC2)c(=O)c2cccn12
 : -0.73	1.5
88) Cc1cc2c(cc3c(=O)n(CC(=O)N4CCc5ccccc5C4)ncn32)s1
 : -0.48	-0.04
89) COc1nc2c(C)cccc2cc1-c1noc(C(C)C)n1
 : 0.05	1.1
90) Cc1ccc(-c2nn3c(=O)c(NC(=O)c4ccc(F)cc4)cnc3o2)cc1
 : .	1.5
91) CCc1n(CC(O)COc2cccc(Cl)c2)c2ccccc2[n+]1C (configuration not stated)
 : 0.34	1.7
92) Cc1nc(SCc2cc(=O)n3nc(CC(C)C)sc3n2)n[nH]1
 : .	1.3
93) CCC(=O)Nc1ccc(-n2cnnn2)cc1
 : -0.81	1.2
94) COC(=O)c1ccc(C(=O)OC)c(NC(=O)c2cc(OC)c(OC)cc2[N+](=O)[O-])c1
 : -3.1	.
95) COC(=O)c1c(C)oc2cc(Br)c(OCC(=O)C(C)(C)C)cc12
 : -3	.
96) CCCN1C(=O)c2cc(C(=O)N3CCCCC3)nn2CC1(C)C(=O)NC1CCCC1 (configuration not stated)
 : .	1.1
97) O=S(=O)(c1cccc2c(Cl)cccc12)N1CCCNCC1
 : -1	.
98) O=C(c1cnn(-c2ccccc2)c1-n1cccc1)N1CCCC(C(=O)N2CCc3ccccc32)C1 (configuration not stated)
 : -0.19	-0.91
99) O=C(c1cc2c(s1)-c1ccccc1OC2)N1CCCCC1
 : -0.57	-0.77
100) CNC(=O)c1ccccc1NC(=O)C1=CSCCO1
 : .	0.79
101) Cc1cc(C)cc(Nc2ncnc3c2cnn3C)c1
 : .	1.4
102) O=C(Nc1ccc(Cl)cn1)c1ccc2c(c1)OCCO2
 : -2.1	0.75
103) Cc1csc(NC(=O)CSc2nnc(Cc3cccn3C)n2C)n1
 : -2.4	-0.72
104) CCOC(=O)N1CCN(S(=O)(=O)c2ccc3c(c2)CCN3C(=O)CC)CC1
 : 1.8	0.58
105) CCCNC(=O)NC1COc2ccc(OC)cc2C1 (configuration not stated)
 : .	0.84
106) Cc1nnsc1-c1nc(CSc2ccccn2)no1
 : -1.6	.
107) CC1=NN(C(=O)c2csc(C(C)C)c2)C(O)(C(F)(F)F)C1 (configuration not stated)
 : -1.4	.
108) CCOC(=O)Cn1c(=O)n(-c2ccccc2)c(=O)c2cc3c(nc21)CC(C)(C)OC3
 : -1.7	1.3
109) O=C(CCCn1ncn2c(cc3occc32)c1=O)NCc1cccc(F)c1
 : 0.4	0.76
110) CC1CCc2c(sc3c2CSC(C(=O)NC2CCCC2)=C3)C1 (configuration not stated)
 : .	-1.4
111) N/C(=N\OC(=O)c1ccc([N+](=O)[O-])o1)c1ccc(Oc2ccc(C(F)(F)F)cc2[N+](=O)[O-])cc1
 : -2.4	.
